Source: PubChem (National Center for Advancing Translational Sciences (NCATS))
NS1 inh: influenza NS1 inhibition | S. cerevisiae slowed by influenza A NS1, growth recovery by OD600 | Potency, µM (top dose mostly 46.1 µM), for inactives: top-dose activity, positive = more growth | 270,000 tested, 0.4% active; note: actives are rising curves; nearly all actives have a fitted effect of over 50% in size
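Compounds were scored for reversing the slow growth caused by influenza A NS1 in S. cerevisiae, measured by optical density at 600 nm. Assay medium contained 2% galactose at pH 6.0; NS1-free yeast of the same strain were the positive control.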
2A StopGo: FMDV 2A StopGo reporter, luciferase signal | human cells with a luciferase reporter of 2A StopGo recoding; control for the full effect not named in the record | Potency, µM (series often up to 57.9 µM), for inactives: top-dose signal change, negative = less light | 410,000 tested, 1.2% active | AID 1159524; active = well fitted falling curve with a large enough effect; inconclusive = small, poorly fitted or top-dose-only effect; inactive = no such curve, though single readings can be large or run the other way; tested in HEK293T cells; note: % is set by controls: 0 for no effect and ±100 for the full control effect; nearly all actives have a fitted effect of over 45% in size; luciferase light after 4 h
Cruzain Triton: inhibitors of Trypanosoma cruzi cruzain with detergent | P25779 | purified cruzain, Z-FR-AMC fluorescence, 0.01% Triton | Potency, µM, for inactives: max response, negative = inhibition, hits mostly inhibitors | 200,000 tested, 0.43% active | AID 1478; active = well fitted curve in the direction sought with a large enough effect; inconclusive = small, poorly fitted or top-dose-only effect, or another doubt; inactive = no such curve, though single readings can be large; an effect the other way counts as inactive or inconclusive;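 note: plate controls were neutral wells for no effect and buffer without enzyme for full effect; nearly all actives have a fitted effect of over 40% in size; top concentration of the series not given in the record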
Target sequence (P25779 123-467 limits assumed): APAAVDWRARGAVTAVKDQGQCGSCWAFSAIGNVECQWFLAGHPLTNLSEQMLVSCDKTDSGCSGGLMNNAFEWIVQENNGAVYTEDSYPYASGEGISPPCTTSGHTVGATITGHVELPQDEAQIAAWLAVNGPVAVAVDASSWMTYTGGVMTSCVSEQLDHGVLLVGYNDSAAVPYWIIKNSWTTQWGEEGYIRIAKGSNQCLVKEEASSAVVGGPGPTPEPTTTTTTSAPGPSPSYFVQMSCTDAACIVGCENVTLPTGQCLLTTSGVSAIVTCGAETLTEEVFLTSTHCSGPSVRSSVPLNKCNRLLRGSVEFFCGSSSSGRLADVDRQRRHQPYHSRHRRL
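Z-FR-AMC hydrolysis (2 uM substrate) by cruzain (1.5 nM) monitored kinetically at ex 360/em 450 nm after 15 min room-temperature compound exposure; 0.01% Triton X-100, pH 5.5, 5 mM DTT.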
MARV entry inh: blocks Marburg virus binding to or entry into cells; Marburg virus pseudotyped entry inhibition, cell reporter; control for the full effect not named in the record; about a third of the inactives were read at about 46 µM; Potency, µM (series often up to 37.8 µM), for the others: at the highest dose activity change, negative = inhibition, hits mostly inhibitors; 300,000 tested, 1.8% active; active = well fitted inhibition curve with a large enough effect; inconclusive = small, poorly fitted or top-dose-only effect, or effect the other way; inactive = flat fitted curve, though single readings scatter; tested in HEK293 cells; about a fifth of its hits are not listed in these tables; note: % is set by controls: 0 for no effect and ±100 for the full control effect; luciferase read-out
SARS PLpro yeast: SARS-CoV PLP inhibition in yeast; S. cerevisiae expressing SARS-CoV PLpro, growth rescue; control for the full effect not named in the record; AID 485353; Potency, µM (highest dose often 32.9 µM), for inactives: top-dose activity, positive = growth rescue; 330,000 tested, 0.19% active; note: 0% is about no effect; nearly all actives have a fitted effect of over 55% in size; growth read by luminescence after 48 h
RE007 growth inh: less growth of the S. pombe RE007 Vpr strain; AID 651644; 360,000 tested, 0.21% active; Potency, µM (doses to about 92.2 µM), for the others: at the top dose activity change, negative = less growth; S. pombe RE007 Vpr strain, BacTiter-Glo ATP luminescence, 24 h; control for the full effect not named in the record; active = well fitted falling curve with a large enough effect; inconclusive = small, poorly fitted or top-dose-only effect; inactive = no such curve, though single readings can be large or run the other way;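 note: % is set by controls: 0 for no effect and ±100 for the full control effect; nearly all actives have a fitted effect of over 50% in size; the assay follows cell death caused by Vpr and the record does not say whether a fall means rescue or toxicity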
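Fission yeast strain RE007, carrying one chromosomally integrated HIV-1 vpr copy, was seeded at OD 0.01 in PMG+AL medium with 23 nL pinned compound. After 24 h at 30 °C and 99% humidity, viability was read by BacTiter-Glo luminescence.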
Cruzain noTriton: cruzain (T. cruzi) inhibition without detergent. 200,000 tested, 2.3% active. purified cruzain, Z-FR-AMC fluorescence, no detergent. Potency, µM, inactives show max response, negative = inhibition, actives largely listed as inhibitors. P25779; active = well fitted curve in the direction sought with a large enough effect; inconclusive = small, poorly fitted or top-dose-only effect, or another doubt; inactive = no such curve, though single readings can be large; an effect the other way counts as inactive or inconclusive;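 note: plate controls were enzyme without inhibitor for no effect and buffer without enzyme for full effect; nearly all actives have a fitted effect of over 40% in size; top concentration of the series not given in the record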
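Detergent-free condition (0.00005% Triton X-100) in acetate buffer pH 5.5 with DTT. 1.5 nM enzyme and compound were pre-mixed 15 min, then 2 uM Z-FR-AMC substrate added; reaction progress from fluorescence change between first and third reads (60 s).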
Lassa entry inh: blocks Lassa virus binding to or entry into cells; Lassa virus pseudotype entry inhibition, cell reporter; control for the full effect not named in the record; Potency, µM (doses to about 37.9 µM), without a hit: at the highest dose activity change, negative = inhibition, usual class: inhibitors; 300,000 tested, 1.2% active; active means well fitted inhibition curve with a large enough effect; inconclusive means small, poorly fitted or top-dose-only effect, or effect the other way; inactive means flat fitted curve, though single readings scatter; tested in HEK293 cells; note: % is set by controls: 0 for no effect and ±100 for the full control effect; nearly all actives have a fitted effect of over 50% in size; luciferase read-out
Starred values were filed as active, the others as inactive; ? = inconclusive; . = no result given; [ ] = another dose, or the depositor's remark. Unless noted, calls come from the whole dose curve; as a rule, active means well fitted rising curve with a large enough effect; inconclusive means small, poorly fitted or top-dose-only effect; inactive means no such curve, though single readings can be large or run the other way. Potency is the fitted concentration of half-maximal effect.

Preview:
SMILES	NS1 inh	2A StopGo	Cruzain Triton	MARV entry inh	SARS PLpro yeast	RE007 growth inh	Cruzain noTriton	Lassa entry inh
CCn1c(=O)c(CCC(=O)N2CCN(c3ccccn3)CC2)c(C)c2c(C)nn(-c3ccccc3)c21	1%	-7%	.	.	-6%	157%	.	.
Cc1ccc(C23CC4CC(CC(C(=O)NC(C(=O)O)C(C)C)(C4)C2)C3)cc1 (centres undefined)	28%	-11%	.	9%[46.1 µM]	-1%	6%	.	19%[46.1 µM]

The listing, previewed entries included:
SMILES	NS1 inh	2A StopGo	Cruzain Triton	MARV entry inh	SARS PLpro yeast	RE007 growth inh	Cruzain noTriton	Lassa entry inh
CCn1c(=O)c(CCC(=O)N2CCN(c3ccccn3)CC2)c(C)c2c(C)nn(-c3ccccc3)c21	1%	-7%	.	.	-6%	157%	.	.
Cc1ccc(C23CC4CC(CC(C(=O)NC(C(=O)O)C(C)C)(C4)C2)C3)cc1 (centres undefined)	28%	-11%	.	9%[46.1 µM]	-1%	6%	.	19%[46.1 µM]
O=C(O)C(Cc1ccccc1)n1cnnn1 (centres undefined)	-1%	-10%	0.8%	2%	-10%	-27%	-1%	17%
Nc1nonc1-n1nnc(C(=O)N/N=C/c2ccccc2Br)c1CN1CCCC1	5%	-20%	.	9%[46.1 µM]	0%	-3%	.	?
CCCc1nc2ccccc2c(C(=O)OCc2nnc(-c3cc(OC)c(OC)c(OC)c3)o2)c1CC	-12%	?	-11%	?	-2%	11%	?	?
Cc1nc(NC2CCCCC2)c2nnn(Cc3ccccc3Cl)c2n1	16%	?	.	.	9%	4%	.	.
COc1ccccc1C(=O)Nc1ccncc1	5%	-4%	.	-13%[46.1 µM]	-8%	4%	.	22%[46.1 µM]
CC(O)c1nc2ccc(C(=O)O)cc2[nH]1 (centres undefined)	-7%	-8%	.	.	-1%	29%	.	.
O=[N+]([O-])c1ccc2[nH]nc(-c3ccccc3)c2c1	-42%	-11%	-12%	-5%	-55%	14%	-13%	-5%
O=C(O)CC/C(=C/c1cccc(NC(=O)c2ccccc2Cl)c1)c1nc2ccccc2s1	.	2%	.	19%[46.1 µM]	.	-6%	.	19%[46.1 µM]

Quoted from the listing.
O=C(O)CC/C(=C/c1cccc(NC(=O)c2ccccc2Cl)c1)c1nc2ccccc2s1 in Lassa entry inh reads 19%[46.1 µM]
Nc1nonc1-n1nnc(C(=O)N/N=C/c2ccccc2Br)c1CN1CCCC1 in SARS PLpro yeast reads 0%

Additional records
SMILES	NS1 inh	2A StopGo	Cruzain Triton	MARV entry inh	SARS PLpro yeast	RE007 growth inh	Cruzain noTriton	Lassa entry inh
NCCCC[C@@H]1NC(=O)c2cc([N+](=O)[O-])cc(F)c2NCCCC[C@@H](C(N)=O)NC(=O)CNC1=O	-19%	-11%	-7.3%	14%	-8%	-3%	-11%	3%
Cc1ccc(-n2ncc(C(=O)NCCCN3CCN(C)CC3)c2C2CCN(C(=O)OC(C)(C)C)CC2)cc1	.	-4%	0.7%	.	.	.	3%	-29%[46.1 µM]
COc1ccc(C2CC(c3c(O)n(CCc4ccccc4)c(=O)[nH]c3=O)=NN2)cc1OC (centres undefined)	22%	0%	.	?	0%	2%	.	-1%
O=C(CCS(=O)(=O)c1ccccc1)Nc1nccs1	4%	-17%	4.5%	5%	10%	2%	-3%	.
CCOc1ccc(OCC)c(NC(=O)Cn2c(C)nc3ccccc3c2=O)c1	.	-18%	.	2%[46.1 µM]	2%	11%	.	10%
CSc1ccccc1OCc1cc(C(=O)NCCn2nc(C)cc2C)no1	-23%	-22%	.	-22%	-2%	-5%	.	?
CC(C)CC(=O)/C(=C/c1ccc(N(C)C)cc1)n1cncn1	2%	-1%	.	-1%[46.1 µM]	0%	-4%	.	-4%[46.1 µM]
CCCCN1C(=O)CN(C2CCCCCC2)C(=O)C1c1ccc(OCCC)c(OC)c1 (centres undefined)	.	-15%	1.2%	.	.	.	0%	8%[46.1 µM]
Cn1c(N2CCC(C(N)=O)CC2)nc2c1c(=O)n(Cc1ccc(Br)cc1)c(=O)n2C	0%	-20%	.	?	.	-7%	.	5%
O=C1CC(C2CCCO2)C(=O)N1c1cccc(Cl)c1 (centres undefined)	11%	-21%	0.2%	20%	11%	-3%	5%	29%
N#C/C(=C\c1ccc(-c2ccc(C(=O)O)cc2)o1)C(=O)NCC1CCCO1 (centres undefined)	16%	3%	-7.3%	?	13%	1%	8%	3%
Cc1ccn2c(CNCC3COCCO3)c(C(=O)N3CCCCCC3)nc2c1 (centres undefined)	-11%	2%	.	-1%	-3%	6%	.	-6%
COc1ccc(N2CCN(S(=O)(=O)CCNC(=O)c3c(F)cccc3Cl)CC2)cc1	.	-6%	-1.5%	.	.	.	10%	0%[46.1 µM]
O=C1c2ccccc2C(=O)c2c(NCCCN(CCO)CCO)cccc21	-10%	?	.	?	-1%	-27%	.	6%
Cc1cccc(CN2CCN(C3CCCC3)C(CCO)C2)n1 (centres undefined)	3%	-12%	.	5%	0%	18%	.	1%
Cc1cc(C)cc(N(CC(=O)NCCSCc2ccccc2)S(C)(=O)=O)c1	-10%	-21%	.	-15%[46.1 µM]	-2%	22%	.	?
C=CCN(CC=C)C(=O)c1cccc(OC2CCN(CC(C)(C)C)CC2)c1	-7%	-9%	.	.	3%	8%	.	.
CN(C(=O)Cc1noc2ccccc12)c1ccccc1	11%	21%	2.6%	-2%	10%	4%	3%	28%
CCc1ccc(CNC(=O)c2sc3nc[nH]c(=O)c3c2C)cc1	.	-11%	-3.5%	.	.	.	17%	?
CN1C(=S)N(c2cccnc2)C(=O)/C1=C\c1ccc(N(C)C)cc1	.	?	.	?	-3%	-13%	.	9%[46.1 µM]
COc1nccnc1NS(=O)(=O)c1ccc(N)cc1	6%	-15%	.	.	1%	8%	.	.
C/C(=N\NC(=O)CCCNc1cccc(C)c1)c1ccncc1	-3%	-8%	.	.	1%	6%	.	.
Cc1ccc(CNC(=O)c2ccc(C)s2)cc1	.	0%	.	16%[46.1 µM]	.	43%	.	11%
COc1ccc(NS(=O)(=O)c2ccc(N/N=C(\C)c3ccncc3)c([N+](=O)[O-])c2)cc1	?	-13%	-7.9%	6.3µM*	21%	2%	13µM*	12µM*
Cc1ccc(NC(=O)c2ccc(NCCN)c([N+](=O)[O-])c2)cc1Cl	18%	12%	-4.7%	?	-22%	6%	?	14%

One compound at a time (already shown).
Shown for `Cc1ccc(NC(=O)c2ccc(NCCN)c([N+](=O)[O-])c2)cc1Cl` → NS1 inh: 18%; 2A StopGo: 12%; Cruzain Triton: -4.7%; MARV entry inh: ?; SARS PLpro yeast: -22%; RE007 growth inh: 6%; Cruzain noTriton: ?; Lassa entry inh: 14%
Shown for `Cc1ccc(CNC(=O)c2ccc(C)s2)cc1` → NS1 inh: .; 2A StopGo: 0%; Cruzain Triton: .; MARV entry inh: 16%[46.1 µM]; SARS PLpro yeast: .; RE007 growth inh: 43%; Cruzain noTriton: .; Lassa entry inh: 11%

Quoted at random: five compounds from above.
SMILES	NS1 inh	2A StopGo	Cruzain Triton	MARV entry inh	SARS PLpro yeast	RE007 growth inh	Cruzain noTriton	Lassa entry inh
COc1ccc(NS(=O)(=O)c2ccc(N/N=C(\C)c3ccncc3)c([N+](=O)[O-])c2)cc1	?	-13%	-7.9%	6.3µM*	21%	2%	13µM*	12µM*
COc1nccnc1NS(=O)(=O)c1ccc(N)cc1	6%	-15%	.	.	1%	8%	.	.
C/C(=N\NC(=O)CCCNc1cccc(C)c1)c1ccncc1	-3%	-8%	.	.	1%	6%	.	.
Cc1ccc(CNC(=O)c2ccc(C)s2)cc1	.	0%	.	16%[46.1 µM]	.	43%	.	11%
Cc1ccc(NC(=O)c2ccc(NCCN)c([N+](=O)[O-])c2)cc1Cl	18%	12%	-4.7%	?	-22%	6%	?	14%
